High-throughput results: PubChem, National Center for Advancing Translational Sciences (NCATS)
TRPV1 potentiator – human TRPV1 potentiation; TRPV1-expressing cells, Fluo-8 calcium influx, capsaicin EC20 potentiation; host cell line not named in the record; control for the full effect not named in the record; potentiation, % at 8.33 µM; actives 0.02% (n = 320,000); AID 540277; active means potentiation above 80%; inconclusive means 30% to 80%; inactive means below 30%; note: 0% is about no effect
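Fluo-8 calcium influx in TRPV1-expressing cells, kinetic read (ex 480/em 520 nm). Compound added and read 3 min for agonist activity, followed by capsaicin at EC20 final and 2 min further read for enhancement.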
CtBP-E1A blk – CtBP/E1A binding inhibition; AlphaScreen GST-E1A/His-CtBP binding, 1536-well; hits give low values; control for the full effect not named in the record; activity change, % (no concentration beside the values); actives 0.49% (n = 340,000); AID 651724; in the data active means activity change below about -65%; inconclusive means about -30% to -65%; inactive means above about -30%; note: % is set by controls: 0 for no effect and ±100 for the full control effect; compound concentration not given in the record
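GST-E1A and His-tagged CtBP (125 nM each as 5X stock) were preincubated with pin-transferred compound for 2 h at 37 °C in the dark, then glutathione donor and nickel acceptor beads were added for 1 h before AlphaScreen reading.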
Sfp inh – blocks B. subtilis Sfp PPTase activity. actives 3.5% (n = 310,000). Q9F4F7. Potency, µM, for inactives: max response, negative = inhibition, usual class: inhibitors. Biochemical Sfp PPTase activity, qHTS; active = well fitted inhibition curve with a large enough effect; inconclusive = small, poorly fitted or top-dose-only effect, or another doubt; inactive = no such curve, though single readings can be large or run the other way;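 note: the enzyme is Sfp with the accession as filed and its product quenches rhodamine fluorescence; potency is the fitted concentration of half-maximal effect; 0% = enzyme reaction without inhibitor and -100% = no enzyme wells; top concentration of the series not given in the record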
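Fluorescence-quenching assay with 15 nM Sfp, 5 uM rhodamine-CoA and 12.5 uM BHQ-2-labelled ybbR peptide in pH 7.6 Hepes/MgCl2 buffer. Enzyme was pre-incubated with compound for 15 min at room temperature. Rate was taken from the 30-min fluorescence change (525/598 nm).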
Six1-Eya2 blk – blocks human Six1 binding to Eya2 | activity change, % (test concentration not listed) | actives 0.56% (n = 360,000) | AID 651725 | AlphaScreen GST-Six1/His-Eya2 binding, biochemical; hits give low values; control for the full effect not named in the record | Q15475+O00167; in the data active = activity change below about -65%; inconclusive = about -30% to -65%; inactive = above about -30%; note: % is set by controls: 0 for no effect and ±100 for the full control effect; compound concentration not given in the record
Target sequence (O00167 whole entry, looked up): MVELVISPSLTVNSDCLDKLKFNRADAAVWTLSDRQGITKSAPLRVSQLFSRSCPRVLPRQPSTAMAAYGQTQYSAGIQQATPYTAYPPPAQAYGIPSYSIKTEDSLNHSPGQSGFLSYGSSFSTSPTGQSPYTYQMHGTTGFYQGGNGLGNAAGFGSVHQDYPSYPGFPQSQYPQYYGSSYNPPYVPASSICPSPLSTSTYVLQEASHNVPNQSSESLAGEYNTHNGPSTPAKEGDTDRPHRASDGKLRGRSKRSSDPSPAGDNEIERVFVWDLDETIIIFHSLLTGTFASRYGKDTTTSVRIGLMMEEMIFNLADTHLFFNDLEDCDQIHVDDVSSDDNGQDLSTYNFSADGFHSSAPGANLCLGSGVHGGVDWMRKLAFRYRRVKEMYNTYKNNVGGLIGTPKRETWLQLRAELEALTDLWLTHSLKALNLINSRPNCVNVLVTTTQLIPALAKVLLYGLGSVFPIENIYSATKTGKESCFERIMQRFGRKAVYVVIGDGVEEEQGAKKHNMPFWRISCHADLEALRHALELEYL
Target sequence (Q15475 whole entry, looked up): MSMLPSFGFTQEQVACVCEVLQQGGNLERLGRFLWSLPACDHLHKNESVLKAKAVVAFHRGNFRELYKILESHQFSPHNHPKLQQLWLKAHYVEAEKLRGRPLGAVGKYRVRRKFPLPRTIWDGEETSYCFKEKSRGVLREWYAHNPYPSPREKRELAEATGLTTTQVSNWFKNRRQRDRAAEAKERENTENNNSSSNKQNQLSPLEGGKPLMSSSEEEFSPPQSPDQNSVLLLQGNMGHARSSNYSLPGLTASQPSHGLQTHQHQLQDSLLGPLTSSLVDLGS
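AlphaScreen luminescence read after one hour at 37 °C in darkness. Pin-transferred compounds met GST-Six1 and His-Eya2 protein (5X stock 250 nM/500 nM) plus glutathione donor and Ni-chelate acceptor beads (5X, 50 ug/mL).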
D2 ag – agonists of human D2 dopamine receptor (beta-arrestin); activation, % (test concentration not listed); DiscoveRx PathHunter D2 beta-arrestin, luminescence, 90 min; 100% = 57 uM dopamine signal; actives 0.084% (n = 360,000); in the data active = activation above about 40%; inconclusive = about 15% to 40%; inactive = below about 15%; note: compound concentration not given in the record; the text of the record calls up to 30% inactive
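DiscoveRx PathHunter D2 beta-arrestin cells (2,100/well) attached overnight, then compound-stimulated 90 min at 37 C in HBSS/10 mM HEPES/0.1% Tween-20 buffer; beta-galactosidase complementation read by luminescence after 1 h at ambient temperature. Dopamine 57 uM final (EC100) as control.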
D2 PAM – positive allosteric modulators of human D2 dopamine receptor | P14416 | DiscoveRx D2 beta-arrestin cells, luminescence, 90 min; 100% = 57 uM dopamine signal | potentiation, % (no concentration beside the values) | actives 0.23% (n = 360,000); active = potentiation of 50% or more; inconclusive = 30% to 50%; inactive = 30% or less;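 note: compound concentration not given in the record; tested on top of an EC20 dose of dopamine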
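D2 cells co-treated with compound plus 50 nM dopamine (EC20) for 90 min at 37 deg C to detect potentiation. Beta-arrestin recruitment was read as enzyme-fragment luminescence after 1 h at ambient temperature. Full response was set by 57 uM dopamine.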
PINK1 modulator – PINK1 expression modulation | PINK1 immunofluorescence, high-content cytometry, 24 h | Potency, µM (series often up to 76.6 µM), inactives show at the top dose activation (PINK1 increase), most hits filed as activators | actives 0.2% (n = 410,000); active = well fitted activation curve with a large enough effect; inconclusive = small, poorly fitted or top-dose-only effect; inactive = flat fitted curve, though single readings scatter; cell line not stated here;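 note: potency is the fitted concentration of half-maximal effect; % of control where 0% means no effect; nearly all actives have a fitted effect of over 65% in size; a mitochondrial uncoupler was the plate control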
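Stable cell line, 250 cells/well, 12 h attachment; compounds pinned at 5 concentrations, 24 h; CCCP control. Fixed with nuclear dye, primary antibodies 12 h at 10 degrees C, secondary plus cell stain; laser-scanning cytometer read.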
Active calls of the source: *; ? = inconclusive; · = no result given; [ ] = dose if it differs, or a comment.

SMILES	TRPV1 potentiator	CtBP-E1A blk	Sfp inh	Six1-Eya2 blk	D2 ag	D2 PAM	PINK1 modulator
CCCN(CCC)C(=O)Cn1c(=O)n(CCCCC(=O)NCc2ccco2)c(=O)c2ccccc21	10	1	-30%	0	-5.2	1	-0.8%
COc1nc(N)nc(N)c1NS(=O)(=O)c1ccc(C)cc1	?	7	11%	5	-2.9	-12	0.6%
Cc1ccccc1NC(=O)c1sc2nc3c(c(-c4ccco4)c2c1N)CCC3	2	17	?	9	-1.5	-6	6.4%
CC1(C)OC2CC3C4CCC5=CC(=O)CCC5(C)C4(F)C(O)CC3(C)C2(C(=O)CO)O1 (stereo not given)	·	14	·	16	-1.6	3	0.3%
C=CCc1cc(Cl)ccc1OCCOCCNC(C)CC (stereo not given)	-4	11	?	15	-5.0	-15	0.5%
C1CCc2nc3c(nc2C1)CCCC3	7	-18	0%	2	5.4	-1	-0.3%
CCOc1cc(NC(=S)NCC2CCCO2)c(OCC)cc1NC(=O)c1ccc(F)cc1 (stereo not given)	4	-8	7%	-13	0.1	-35	1.5%
CCCCn1c(CN(Cc2ccccc2)Cc2ccccc2)nc2c1c(=O)n(C)c(=O)n2C	·	-1	·	11	-0.7	-2	0.5%
COc1ccc2cc3cc(C(=O)N4CCCC(C)C4)oc3nc2c1 (stereo not given)	-9	2	11%	2	4.2	-2	1.2%
CCCC(=O)c1ccc(N2CCCCCC2)c(F)c1	-8	9	-11%	45	0.7	-5	16%
COc1ccc(CCNC(=O)CSc2nc3[nH]ncc3c(=O)n2-c2cccc(C(F)(F)F)c2)cc1OC	-2	0	2%	7	1.5	-2	3.1%
Cc1ccc(NC(=O)/C(=C\C=C\c2ccccc2)NC(=O)c2ccccc2)cc1	0	-7	22%	-3	-5.3	-26	-0.3%
COc1ccc(Br)cc1/C=N/NS(=O)(=O)c1ccccc1	·	2	·	-12	-12	-38	4.0%
CCOC(=O)C1CCCN(c2c(N3CCN(C)CC3)c(=O)c2=O)C1 (stereo not given)	25	4	17%	6	-2.9	-4	0.9%
O=C(CNCc1ccc(Cl)cc1)N1CCc2ccccc2C1	5	1	-2%	0	-7.6	-22	0.7%
Nc1nc2ccccc2n1C(=O)CCc1ccccc1	·	1	18%	-1	1.4	-9	14%
O=C(O)C1CC(C(=O)O)SS1 (stereo not given)	·	0	·	-8	-5.0	-1	4.4%
Cc1c(C(=O)N2CCOCC2)oc2ccc(S(=O)(=O)N3CCCCCC3)cc12	-29	0	-6%	2	-0.1	3	1.1%
COc1cccc(C(=O)N2CCSC2=S)c1	-6	12	-2%	-2	-3.2	-18	-0.6%
Cc1cc(NC(=O)CN2C(=O)NC3(CCCCC3)C2=O)ccc1N1CCCC1	-10	-1	·	-2	-7.1	4	0.9%
Cc1ccc(C)c(NC(=S)N2CCC(NC(=O)c3cccc(F)c3)CC2)c1	-1	3	4%	16	-0.5	-5	2.4%
CC(C)CC(=O)Nc1ccc(S(=O)(=O)Nc2nccs2)cc1	2	·	8%	0	6.4	-3	0.6%
C(CNC1C2CC3CC(C2)CC1C3)CN1CCOCC1 (stereo not given)	14	·	11%	2	-1.1	2	-1.1%
Cc1ccc(C)c(CN2CCC(CNC(=O)Nc3ccc(C)c(F)c3)CC2)c1	-12	·	7%	-6	-7.1	-19	1.6%
Cc1ccc(NS(=O)(=O)c2ccc(-c3coc(C)n3)cc2)c(Br)c1	30	0	13%	-6	3.9	1	0.6%
Continuation.
SMILES	TRPV1 potentiator	CtBP-E1A blk	Sfp inh	Six1-Eya2 blk	D2 ag	D2 PAM	PINK1 modulator
CCC(CO)Nc1ccn2nc(-c3cccs3)cc2n1 (stereo not given)	·	-23	·	-13	14	-10	1.1%
COc1ccc(C(=O)N/C=C/n2cnc3cc(C(F)(F)F)ccc32)cc1	8	-1	14%	7	2.5	-1	16%
COc1ccc(Nc2nnc(C)c3ccccc23)cc1	-4	·	14%	-1	-2.1	5	1.8%
COc1ccccc1N(CC(=O)N/N=C(\C)c1cccc(Br)c1)S(C)(=O)=O	7	-5	3%	-10	1.5	-24	-1.3%
CC(=O)c1ccc(-c2ccc(C(=O)Nc3nc(-c4ccccn4)cs3)o2)cc1	·	-79*	·	-69*	5.6	8	?
COc1cc(NC2c3ccccc3C(=O)N2Cc2ccccc2Cl)cc(OC)c1 (stereo not given)	7	-26	-3%	-4	4.6	1	0.7%
Cc1ccccc1C(=O)/C(C#N)=N/Nc1c(C)n(C)n(-c2ccccc2)c1=O	2	-70*	23%	-68*	-7.8	-25	-1.4%
CCOC(=O)c1sc(NC(=O)CSc2n[nH]c(-c3ccncc3)n2)c(C#N)c1C	16	-1	2%	-3	6.3	-17	2.8%
Cc1ccccc1-c1nnc(SCC(=O)Nc2ccc(Cl)cc2)n1N	-7	-3	9%	1	-0.3	3	0.3%
Nc1cc(Cl)nc(N/N=C/c2ccccc2[N+](=O)[O-])n1	-2	-1	21%	-3	-3.7	0	-0.7%
COc1ccc2c(c1OC)C(=O)OC2CC(=O)O (stereo not given)	-1	-4	5%	7	-1.5	0	0.4%
O=C(COC(=O)c1ccc[nH]c1=O)Nc1ccc(N2CCCCC2)cc1	·	·	·	0	3.9	-2	4.6%
COc1ccc(-c2noc(CCC(=O)NCc3cccnc3)n2)cc1	5	2	7%	0	0.4	-1	1.2%[38.3 µM]
S=c1[nH]nc(COc2cccc(Cl)c2)n1Cc1ccccc1	-5	-22	13%	7	2.9	-3	2.1%
Cc1cc(C)c(S(=O)(=O)c2ccc(Cl)cc2C)c(Cl)n1	10	15	7%	2	-1.1	-13	2.8%
COc1cc(SC)ccc1C(=O)N1CCN(Cc2ccccc2)CC1	7	·	15%	-1	2.3	-17	-1.1%
CCCN(C(=O)/C=C/c1nc2ccccc2s1)C1CCS(=O)(=O)C1 (stereo not given)	2	0	·	11	-2.5	-11	0.0%
CCCCn1nc(C(=O)Nc2cc(C(F)(F)F)ccc2N2CCOCC2)ccc1=O	-3	·	·	-17	-2.7	-9	4.9%
CC1CCCCC1NC(=O)COC(=O)Cc1ccc(Cl)cc1 (stereo not given)	22	5	·	1	-1.6	0	1.9%
COc1cccc(-c2c(C(=O)N/N=C/c3ccncc3)nnn2-c2nonc2N)c1	-9	0	34%[activator]	3	2.4	-7	0.4%
Cn1cnc([N+](=O)[O-])c1Cl	10	-23	-4%	-2	-5.5	-3	-1.2%
CC1(C)Nc2ccccc2C(=O)N1c1ccc(Br)cc1	·	9	·	-8	-0.6	1	4.9%
O=C(C1=NN(c2ccccc2)C2C(=O)N(c3cccc(Cl)c3)C(=O)C12)c1ccccc1 (stereo not given)	1	26	7%	31	-0.3	-9	-0.9%
Cc1ccc(/C=C(\C#N)C(=O)NC(C)c2ccccc2)o1 (stereo not given)	?	-1	-11%	-12	-4.7	-15	-1.1%
Cc1ccccc1CSc1nnc(-c2ccco2)n1Cc1ccco1	-8	-12	-11%	-9	1.8	2	1.7%[38.3 µM]

Retrieved by compound from the entries so far, four records:
SMILES	TRPV1 potentiator	CtBP-E1A blk	Sfp inh	Six1-Eya2 blk	D2 ag	D2 PAM	PINK1 modulator
Cc1cc(C)c(S(=O)(=O)c2ccc(Cl)cc2C)c(Cl)n1	10	15	7%	2	-1.1	-13	2.8%
CC1(C)Nc2ccccc2C(=O)N1c1ccc(Br)cc1	·	9	·	-8	-0.6	1	4.9%
Cc1ccc(/C=C(\C#N)C(=O)NC(C)c2ccccc2)o1 (stereo not given)	?	-1	-11%	-12	-4.7	-15	-1.1%
COc1cc(SC)ccc1C(=O)N1CCN(Cc2ccccc2)CC1	7	·	15%	-1	2.3	-17	-1.1%

Going on with the list.
SMILES	TRPV1 potentiator	CtBP-E1A blk	Sfp inh	Six1-Eya2 blk	D2 ag	D2 PAM	PINK1 modulator
C[C@H]1CN([C@@H](C)CO)C(=O)c2cc(C#CCC3CCCC3)cnc2O[C@@H]1CN(C)C(=O)CC1CC1	·	1	·	-3	-6.0	·	1.6%
Cc1ccc(S(=O)(=O)NCCCC(=O)O)cc1	13	5	14%	3	-1.6	-2	-1.8%
C#CC[N+](C)(C)CC#Cc1ccc(C)cc1	2	-12	23%	2	-1.8	-10	2.2%
CCN(CC)C(=O)Cn1cc(S(=O)(=O)CC(=O)NC2CCCCC2)c2ccccc21	-1	-22	8%	8	3.2	-6	-0.3%
COc1cc(NS(=O)(=O)c2ccc(NC(C)=O)cc2)ncn1	6	11	1%	5	-1.0	-6	19%[38.3 µM]
O=C(O)c1cccn2c(=O)c3ccccc3nc12	-3	0	7%	-1	-4.1	4	0.5%
CC(=O)c1cccc(-c2ccnc3c2CC(C(=O)Nc2ccc(Cl)cc2)O3)c1 (stereo not given)	·	-5	·	-11	-3.6	-14	5.6%
O=C(Cc1c(F)cccc1Cl)NCCN1CCOCC1	1	·	7%	-1	-4.0	-4	1.6%
Cc1cc(C)c(OCC(=O)Nc2cccc(NC(=O)c3ccco3)c2)c(Br)c1	-15	-13	15%	-9	0.9	-2	1.6%[38.3 µM]
COc1ccc(S(=O)(=O)N2CCN(C(=O)c3ccco3)CC2)cc1C(C)(C)C	7	-13	2%	12	-2.4	-4	1.4%
Cc1ccc(NC(=O)COC(=O)C(NS(=O)(=O)c2ccc(Cl)cc2)C(C)O)cc1C (stereo not given)	6	-5	1%	-3	-0.6	-35	4.3%
CC(NC(=O)CN(C)CC(=O)Nc1ccc(Cl)cc1)c1ccc(F)cc1 (stereo not given)	·	-20	·	-2	-0.7	-5	1.5%
CCCNC(=O)c1nnsc1S(=O)(=O)c1ccc(Cl)cc1	15	-2	13µM*	-7	-8.0	-27	-0.6%
CC(C)N(C(=O)COC(=O)c1cccc(C(=O)OCC(=O)N(C(C)C)C(C)C)n1)C(C)C	18	2	-18%	7	-3.1	-12	-0.3%
CC(C)(C)NC(=O)NC(=O)COC(=O)c1ccc(OC(F)(F)F)cc1	0	12	28%	3	-0.8	-4	19%
COc1ccc(OC)c(NC(=O)c2[nH]c(C)c(C(C)=O)c2C)c1	-17	-7	1%	-2	-1.6	-23	11%
CCCc1noc2c1/C(=N\O)CC(CC(C)SCC)C2 (stereo not given)	-28	-2	-15%	-3	0.5	-2	5.2%[38.3 µM]
Cc1ccc(S(=O)(=O)N2CCOCC2)cc1C(=O)NCCN1C(=O)S/C(=C\c2ccccc2Cl)C1=O	4	2	6%	-1	0.4	18	-0.4%
CCOC(=O)C1=C(N)Oc2cc(C)[nH]c(=O)c2C1c1ccncc1 (stereo not given)	-11	5	18%	-3	-1.6	-15	2.2%
